Screens from PubChem BioAssay.
Rce1 inh – yeast Ras-converting enzyme inhibition; calls only; AID 2563; 290,000 compounds, 0.27% hits; Q03530; yeast membranes, quenched prenylated peptide cleavage fluorescence;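 active means fall in fluorescence gain of 50% or more versus controls, with final raw signal at or below 3038400; inconclusive means same 50% fall but final raw signal above 3038400; inactive means fall in fluorescence gain under 50%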;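 further: plate controls were neutral control wells for no effect and wells lacking membranes for full effect; tested at 10 µM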
MT1-MMP act inh – MT1-MMP (human) activation inhibition. HT1080 RFP-PRO-GFP cells, GFP/RFP ratio fluorescence, overnight; percent of plate control window, DMSO zero. GFP/RFP ratio change, % at 20 µM. 360,000 compounds, 0.061% hits;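 active means GFP/RFP ratio change of at least 30% with cell ATP level not reduced by more than half and red fluorescence within 50% of control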; further: strong numbers were not always called active
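Test system: HT1080 cells expressing an RFP-PRO-GFP fluorescent reporter construct / Compound dosing: single-point 20 µM compound, 1% DMSO / Schedule: cells overnight before dosing, compound overnight, 37 °C, 5% CO2 / Evaluation: GFP/RFP fluorescence ratio / Control set: DMSO and RFP-L50D-GFP cell wells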
Env fusion inh – HIV envelope-mediated fusion inhibition; HeLa-JRFL Env/CEM21 cell fusion, luciferase; inhibition, % at 12.3 µM; 360,000 compounds, 1.1% hits; AID 651610;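 active means mean replicate inhibition score of at least 50 and every replicate individually at or above 50; inconclusive means only one of the two criteria met; inactive means mean below 50 and not all replicates reaching 50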;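 further: 0% = plate neutral controls and 100% = maraviroc near 300 nM; one replicate is shown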
UUG fidelity – modulators of start codon recognition fidelity in yeast. S. cerevisiae UUG-firefly luciferase reporter, luminescence/redox ratio. AID 602363. activity score, % at 18.7 µM. 350,000 compounds, 0.13% hits;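 active means replicate mean at a twofold rise or more, about +100% in these data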;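 further: firefly luciferase made from a UUG start codon reports start codon fidelity; reporter light over untreated wells divided by growth signal over untreated wells; some hits fall short of that in this replicate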
eIF4H FP inh – inhibitors of RNA binding by human eIF4H | AID 2012 | eIF4H fluorescence polarization binding assay | inhibition, % at 35 µM | 290,000 compounds, 0.94% hits;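 active means 50% or more with normal probe brightness, or confirmed in later tests; inconclusive means above 50% with abnormal brightness, or retests that disagree; inactive means below 50% or failed in later tests; about a fifth of its hits are not listed in these tables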;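 further: calls also rest on retests at 20 µM and on dose response follow-up; 0% = protein and probe with vehicle and 100% = probe without protein; strong numbers were not always called active; many hits fall short of the cut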
PABP FP inh – blocks human PABP binding to poly(A) RNA; 290,000 compounds, 1% hits; fluorescence polarization; P11940; inhibition, % at 35 µM;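 active means 50% or more with normal probe brightness, or confirmed in later tests; inconclusive means above 50% with abnormal brightness, or retests that disagree; inactive means below 50% or failed in later tests; about a fifth of its hits are not listed in these tables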;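 further: calls also rest on retests at 20 µM and on dose response follow-up; controls were probe without protein and protein plus probe with vehicle; some compounds called inactive have numbers as strong as hits; many hits fall short of the cut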
Target sequence (P11940 whole entry, looked up): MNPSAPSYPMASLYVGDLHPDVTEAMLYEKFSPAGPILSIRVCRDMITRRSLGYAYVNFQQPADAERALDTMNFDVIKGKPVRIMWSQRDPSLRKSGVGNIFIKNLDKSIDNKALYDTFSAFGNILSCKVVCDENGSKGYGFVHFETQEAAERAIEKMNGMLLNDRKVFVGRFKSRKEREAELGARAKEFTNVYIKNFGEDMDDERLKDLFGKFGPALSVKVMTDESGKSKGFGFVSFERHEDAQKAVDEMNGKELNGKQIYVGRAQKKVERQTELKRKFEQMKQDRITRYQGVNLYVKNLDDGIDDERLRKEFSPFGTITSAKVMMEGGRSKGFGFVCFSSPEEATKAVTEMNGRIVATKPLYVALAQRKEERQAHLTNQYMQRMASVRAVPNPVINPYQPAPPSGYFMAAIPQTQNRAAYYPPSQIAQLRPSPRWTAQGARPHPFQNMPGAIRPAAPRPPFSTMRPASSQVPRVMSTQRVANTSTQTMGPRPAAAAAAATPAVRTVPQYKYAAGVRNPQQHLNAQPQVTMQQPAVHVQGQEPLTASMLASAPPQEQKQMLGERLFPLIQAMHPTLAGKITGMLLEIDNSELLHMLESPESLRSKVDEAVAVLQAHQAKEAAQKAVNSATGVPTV
CSC inhib – blocks cancer stem cells | cancer stem cell-like cells viability, luminescence | inhibition, % at 7.5 µM | 300,000 compounds, 1.1% hits;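 active means mean at 75% or more and at least half the replicates too; inconclusive means mean and replicates disagree; tested in HMLE shEcad cells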;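 further: 0% = median of negative and 100% = median of positive control wells; the first replicate is given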
eIF4H FP inh retest – recorded beside eIF4H FP inh, whose call it bears; inhibition, %; compound at 20 µM; confirmation average;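 mean of two retest wells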
PABP FP inh retest – second read-out of PABP FP inh, no call of its own (marks repeat the call); inhibition, %; compound at 20 µM; confirmation repeats;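 mean of two retest wells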
MT1-MMP act inh RFP – recorded beside MT1-MMP act inh, whose call it bears; RFP signal change, %; measured here: RFP expression control read;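 0 = vehicle wells; hits needed this value within 50% of zero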
Numbers without * were called inactive; i = inactive; ? = inconclusive; nt = no result given.

SMILES | Rce1 inh | MT1-MMP act inh | MT1-MMP act inh RFP | Env fusion inh | UUG fidelity | eIF4H FP inh | PABP FP inh | CSC inhib | others
CCn1c(-c2csc3ccccc23)n[nH]c1=S | i | 19 | 3 | -26 | -22 | 6 | 2 | -3
NC(=O)CCCSc1nc2ccccc2[nH]1 | i | 2 | -2 | 15 | nt | 8 | -2 | -5
COc1ccc(OC)c(S(=O)(=O)N2CCC(C(=O)NC3CCCCC3)CC2)c1 | i | 7 | 8 | 9 | 8 | -4 | -2 | -5
COc1ccc(OC)c(C(=O)c2ccc(C(=O)Nc3ccc(NC(C)=O)cc3)cc2)c1 | i | -2 | -4 | -29 | -8 | -9 | 3 | 14
O=C(/C=C/c1ccccc1)c1c[nH]c2ccccc12 | nt | -2 | -2 | -245 | -27 | 1 | 5 | 7
COc1ccccc1-c1nnc(NC(C)=O)s1 | i | 3 | 2 | nt | -11 | -3 | 2 | -6
O=C(C1CCN(S(=O)(=O)c2ccc(Br)s2)CC1)N1CCCCC1 | i | -3 | -11 | 21 | 7 | 4 | -5 | -19
O=C(NCCCN1CCCCCC1)c1cc2c(=O)oc3ccccc3c2s1 | i | -1 | 3 | 7 | -9 | 18 | -13 | -21
CCOc1ccccc1-n1cnc2cc(C(=O)NCc3ccco3)ccc21 | i | -1 | 0 | nt | 3 | -1 | 2 | 11
COc1ccc(C(=O)NC(=S)NNC(=O)Cc2cccs2)cc1 | i | 11 | 1 | 27 | -40 | 10 | -6 | 8
Nc1cc(N)nc(SCC(=O)N2CCCCC2)n1 | i | 5 | 11 | -28 | -6 | -8 | -1 | 18
CNNC(=S)Nc1cccc(C(F)(F)F)c1 | nt | 0 | -3 | 2 | -19 | -9 | -2 | 2
CN(C)S(=O)(=O)c1cccc(C(=O)Nc2ccc(N3CCOCC3)cc2)c1 | i | 3 | 2 | 27 | -2 | -1 | -1 | 6
N#CCCN1CCN(C2=NC(=O)C(=C3CCCCC3)S2)CC1 | i | -2 | -1 | -18 | -11 | -11 | -7 | 3
O=C(Cn1cnc2scc(-c3cccc([N+](=O)[O-])c3)c2c1=O)NCc1ccco1 | i | 4 | 2 | -34 | nt | 86 | 9 | -7 | eIF4H FP inh retest=3;PABP FP inh retest=-3
Cc1ccc2c(c1)C(O)(CC(=O)c1ccc(C)s1)C(=O)N2 (stereo unspecified) | i | 0 | 2 | -35 | nt | 3 | -1 | -7
Cc1cc(C)nc(N/N=C2/CCCC/C2=C\c2ccccc2)n1 | i | -14 | -19 | 39 | -26 | -4 | 5 | 4
O=[N+]([O-])c1ccc(/C=N/N/C(=N/c2ccccn2)c2ccccn2)cc1 | i | 6 | 2 | nt | -13 | -1 | 7 | 9
Cc1csc(=Nc2ccccc2)n1Cc1ccco1 | i | 1 | -3 | 22 | nt | -5 | 3 | 6
Cc1c(NC(=O)C(C)OC(=O)[C@@H](NC(=O)c2ccccc2)C(C)C)c(=O)n(-c2ccccc2)n1C (stereo partly specified) | i | 7 | 2 | 14 | 4 | -4 | 9 | -5
C/C(=C\C(=O)c1ccccc1)Nc1cccc(O)c1 | i | -25 | 5 | nt | -9 | 14 | 6 | -2
O=[N+]([O-])c1ccccc1/C=N/NC1=NCCN1 | i | -2 | -2 | 8 | nt | nt | nt | 8
CCc1c(C)[nH]n(-c2ccc(Oc3ccccc3)c(S(=O)(=O)O)c2)c1=O | nt | -3 | -3 | nt | 1 | 10 | 26 | -1
CCOc1ccccc1CNC(=O)c1ccc2nc(N3CCOCC3)sc2c1 | i | -2 | -5 | -15 | 2 | -5 | -7 | 7
COCCN1CCn2c(nc3cc(NC(C)=O)ccc32)C1 | i | -5 | 2 | 11 | -13 | 6 | 20 | -11
CC1=C(C(=O)Nc2ccc(Cl)cc2)C(c2ccncc2)C(C#N)=C(SCC(N)=O)N1 (stereo unspecified) | i | 3 | 0 | nt | nt | 16 | 20 | -9
COc1ccccc1/C=C/C=C1\Oc2c(ccc(O)c2CN(C)C)C1=O | i | -159 | -7 | 3 | -6 | ? | ? | 1
CC1(C)CC2(CC(c3cccs3)c3cc(Cl)c(O)cc3O2)NC(=S)N1 (stereo unspecified) | i | -2 | -6 | nt | nt | -9 | -4 | -4
O=C(c1cnsn1)N1CCN(c2ccccn2)CC1 | i | 1 | 5 | -46 | -2 | 5 | -7 | -12
CCC(C)NCC(O)(c1ccc(Cl)cc1)c1ccc(Cl)cc1 (stereo unspecified) | i | 5 | 0 | -18 | -3 | -2 | 0 | -3
CC(=O)Nc1ccc(NC(=O)CN(C)CCC#N)cc1 | i | 3 | 1 | -33 | -13 | -7 | -2 | -12
CCc1ccccc1NC(=O)Nc1ccsc1C(=O)OC | i | -3 | 1 | -11 | 3 | 5 | 3 | -5
COc1cc(C(=O)NCC(=O)N/N=C/c2cccs2)cc(OC)c1OC | i | 4 | 0 | 2 | -9 | -2 | 2 | -15
N#Cc1cn(N2CCCCC2)c(=O)[nH]c1=O | i | 1 | 5 | -3 | -16 | 6 | -2 | nt
COc1ccc(CCNC(=O)CSc2nnc(CNC(=O)c3cc(OC)c(OC)c(OC)c3)o2)cc1OC | i | 1 | 3 | -5 | -18 | -9 | 3 | -13
CC(=O)N1CCOc2ccc(S(=O)(=O)NC[C@H]3O[C@@H](n4cnc5c(N)ncnc54)[C@H](O)[C@@H]3O)cc21 | nt | 1 | 3 | 2 | -13 | nt | nt | nt
Nc1cc(-c2ccc(Cl)cc2)nn1S(=O)(=O)c1ccc(Cl)cc1 | i | 6 | 2 | -6 | -12 | 130 | 124 | 0 | eIF4H FP inh retest=1;PABP FP inh retest=3
Cc1ccc(NC2=CC(=O)CC(C)(C)C2)c(N)c1 | i | -35 | 4 | nt | -30 | 82* | 79* | -5
CCCc1cc(=O)[nH]c(SCC(=O)N2CCOCC2)n1 | i | -1 | 1 | 14 | -7 | -7 | -8 | -14
O=C(COc1ccccc1)NCCS(=O)(=O)N1CCN(c2ccccc2)CC1 | i | 1 | -3 | 0 | -11 | nt | nt | -12

Fetched by structure from the list above:
SMILES | Rce1 inh | MT1-MMP act inh | MT1-MMP act inh RFP | Env fusion inh | UUG fidelity | eIF4H FP inh | PABP FP inh | CSC inhib | others
CCCc1cc(=O)[nH]c(SCC(=O)N2CCOCC2)n1 | i | -1 | 1 | 14 | -7 | -7 | -8 | -14
Cc1ccc(NC2=CC(=O)CC(C)(C)C2)c(N)c1 | i | -35 | 4 | nt | -30 | 82* | 79* | -5

Following part
SMILES | Rce1 inh | MT1-MMP act inh | MT1-MMP act inh RFP | Env fusion inh | UUG fidelity | eIF4H FP inh | PABP FP inh | CSC inhib | others
Cc1cc(C)cc(NC(=O)c2cccnc2)c1 | i | 7 | 1 | -2 | -9 | -11 | -18 | -17
N#Cc1ccc(OCC(=O)NC2=NCCS2)cc1 | i | 2 | 3 | -5 | -11 | -5 | -9 | -7
CC1=CC(=O)C=C(C)C1=NOC(=O)c1cccc([N+](=O)[O-])c1 | i | 0 | 6 | nt | nt | -4 | 27 | 6
CCOP(=O)(CN(CC)C(=O)c1ccccc1Br)OCC | i | 1 | 4 | -28 | nt | -2 | -6 | -1
O=C(Cc1ccc(-c2ccccc2)cc1)NC1CCCC1 | i | -3 | -3 | 15 | -31 | 91 | 2 | 5 | eIF4H FP inh retest=38;PABP FP inh retest=-1
Cc1c(Cl)cnc(NC(=O)CSc2nncs2)c1Cl | i | -1 | 2 | -34 | -23 | 2 | -10 | -6
CCc1ccc(NC(=O)N(C2CCCCC2)C(C)c2cccnc2)cc1 (stereo unspecified) | i | 6 | 8 | -37 | 1 | -6 | 0 | 16
COc1cc2c(-c3ccc4c(c3)OCO4)c(-c3ccsc3)oc(=O)c2cc1OC | nt | -5 | -7 | -32 | -17 | nt | nt | 8
Cc1ccc(CN(C)C(=O)C2CCCN2C(=O)c2cccs2)o1 (stereo unspecified) | i | -7 | -1 | -33 | -7 | 8 | 2 | -2
O=C(NCCN1CCN(c2ccccc2)CC1)C1CCN(S(=O)(=O)N2CCOCC2)CC1 | nt | 4 | 2 | nt | -10 | 0 | -5 | nt
Cc1ccccc1OCc1ccc(C(=O)N2CC(C)OC(C)C2)o1 (stereo unspecified) | i | 1 | 2 | 9 | -14 | -6 | 7 | nt
O=C1CC(N2CCN(C(c3ccccc3)c3ccccc3)CC2)C(=O)N1Cc1ccc(N2CCCC2=O)cc1 (stereo unspecified) | i | 7 | -7 | 7 | 5 | -8 | 12 | -8
CC(=O)Nc1cccc(C(=O)OC(C(=O)c2ccc(C)cc2)c2ccccc2)c1 (stereo unspecified) | i | -3 | -5 | -29 | -21 | 3 | -4 | -2
Cc1c(Br)c([N+](=O)[O-])nn1CC(=O)NCc1ccccc1 | i | 4 | 2 | 0 | -3 | 2 | 2 | 3
Cc1oc(/C=N/NC(=O)CN(c2ccccc2Br)S(C)(=O)=O)cc1Br | i | -3 | 3 | nt | nt | -14 | -8 | -3
O=C(Nc1nc(-c2cc(Cl)sc2Cl)cs1)c1cccs1 | i | -34 | -31 | nt | -5 | -15 | -4 | 112*
CC(C)N(Cc1nc(-c2ccc(Cl)cc2)no1)C(=O)C(c1ccccc1)c1ccccc1 | i | -50 | -32 | 30 | -15 | -13 | -15 | 32
CCOc1cc(/C=C/C(=O)O)ccc1OCCOc1ccccc1 | i | -4 | -2 | -4 | -14 | -4 | -1 | 2
CC1(C)CC2C1CCC1(O)CC2(C)CCC1N(O)c1ccc(C(=O)NCCO)cn1 (stereo unspecified) | nt | 11 | 10 | ? | -21 | nt | nt | 8
CCN(CC)CCCOC(=O)c1ccc(OC)cc1O | i | -2 | 3 | 3 | nt | 1 | -7 | 6
CCOC(=O)c1sc(NC(=O)c2ccccc2)cc1C | i | -1 | -3 | -411 | -12 | -6 | -8 | 28
COCCNC(=O)CSc1nc2ccccc2c(=O)n1CCC(=O)NCCc1ccc(OC)c(OC)c1 | i | -2 | 1 | -10 | -5 | 2 | -8 | -9
N#Cc1ccsc1NC(=O)CN1C(=O)NC2(CCCC2)C1=O | i | -18 | 9 | -9 | -12 | nt | nt | -2
O=C(NCCCSc1ccccc1)c1cc(Br)ccc1O | i | -1 | -20 | 11 | -2 | -2 | 9 | 80*

In the list so far, 7 have a Cl atom:
SMILES | Rce1 inh | MT1-MMP act inh | MT1-MMP act inh RFP | Env fusion inh | UUG fidelity | eIF4H FP inh | PABP FP inh | CSC inhib | others
CC1=C(C(=O)Nc2ccc(Cl)cc2)C(c2ccncc2)C(C#N)=C(SCC(N)=O)N1 (stereo unspecified) | i | 3 | 0 | nt | nt | 16 | 20 | -9
CC1(C)CC2(CC(c3cccs3)c3cc(Cl)c(O)cc3O2)NC(=S)N1 (stereo unspecified) | i | -2 | -6 | nt | nt | -9 | -4 | -4
CCC(C)NCC(O)(c1ccc(Cl)cc1)c1ccc(Cl)cc1 (stereo unspecified) | i | 5 | 0 | -18 | -3 | -2 | 0 | -3
Nc1cc(-c2ccc(Cl)cc2)nn1S(=O)(=O)c1ccc(Cl)cc1 | i | 6 | 2 | -6 | -12 | 130 | 124 | 0 | eIF4H FP inh retest=1;PABP FP inh retest=3
Cc1c(Cl)cnc(NC(=O)CSc2nncs2)c1Cl | i | -1 | 2 | -34 | -23 | 2 | -10 | -6
O=C(Nc1nc(-c2cc(Cl)sc2Cl)cs1)c1cccs1 | i | -34 | -31 | nt | -5 | -15 | -4 | 112*
CC(C)N(Cc1nc(-c2ccc(Cl)cc2)no1)C(=O)C(c1ccccc1)c1ccccc1 | i | -50 | -32 | 30 | -15 | -13 | -15 | 32
